CtBP-E1A inh: CtBP/E1A binding inhibition; AID 651724; activity change, % (test concentration not listed); AlphaScreen GST-E1A/His-CtBP binding, 1536-well; hits give low values; control for the full effect not named in the record; 340,000 compounds, 0.49% hits; in the data active means activity change below about -65%; inconclusive means about -30% to -65%; inactive means above about -30%; note: % is set by controls: 0 for no effect and ±100 for the full control effect
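AlphaScreen with 125 nM GST-E1A and 125 nM His-CtBP (5X stocks) in Tris pH 8.0, 300 mM NaCl, BSA, Tween 20, TCEP. Compounds preincubated 2 h at 37 deg C, then glutathione donor/nickel acceptor beads added for 1 h at 37 deg C in dark.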
Six1-Eya2 inh: blocks human Six1 binding to Eya2; Q15475+O00167; AlphaScreen GST-Six1/His-Eya2 binding, biochemical; hits give low values; control for the full effect not named in the record; activity change, % (test concentration not listed); 360,000 compounds, 0.56% hits; in the data active = activity change below about -65%; inconclusive = about -30% to -65%; inactive = above about -30%; note: % is set by controls: 0 for no effect and ±100 for the full control effect
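AlphaScreen with GST-Six1 and His-Eya2 (5X mix: 250 nM and 500 nM), glutathione donor and nickel acceptor beads; buffer 50 mM Tris pH 8.0, 300 mM NaCl, 1 mM TCEP; 1 h at 37 C in the dark.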
PINK1 expr mod: PINK1 expression modulation. PINK1 immunofluorescence, high-content cytometry, 24 h. Potency, µM (highest dose often 76.6 µM), without a hit: at the top dose activation (PINK1 increase), actives largely listed as activators. 410,000 compounds, 0.2% hits. AID 624263; active = well fitted activation curve with a large enough effect; inconclusive = small, poorly fitted or top-dose-only effect; inactive = flat fitted curve, though single readings scatter; cell line not stated here;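 note: potency is the fitted concentration of half-maximal effect; % of control where 0% means no effect; nearly all actives have a fitted effect of over 65% in size; a mitochondrial uncoupler was the plate control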
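Stable cell line treated 24 h with compounds at 5 concentrations (CCCP controls), then fixed and immunostained for PINK1 plus nuclear and cell stains; PINK1 immunofluorescence quantified by laser-scanning microplate cytometry.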
TRPML1 inh: human mucolipin-1 channel inhibition | Q9GZU1 | 390,000 compounds, 0.02% hits | TRPML1-inducible cells, Ca2+ dye fluorescence, FDSS; hits give low values; inhibition of EC80 agonist-evoked calcium signal | AID 624415 | activity change, negative = inhibition, % (test concentration not listed); in the data active means activity change below about -50%; inconclusive means about -30% to -50%; inactive means above about -30%;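 note: stimulus is agonist 54-4 at its EC80 concentration; % is set by controls: 0 for no effect and ±100 for the full control effect; compound concentration not given in the record; the text of the record puts the active cut at -80%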
Target sequence (Q9GZU1 whole entry, looked up): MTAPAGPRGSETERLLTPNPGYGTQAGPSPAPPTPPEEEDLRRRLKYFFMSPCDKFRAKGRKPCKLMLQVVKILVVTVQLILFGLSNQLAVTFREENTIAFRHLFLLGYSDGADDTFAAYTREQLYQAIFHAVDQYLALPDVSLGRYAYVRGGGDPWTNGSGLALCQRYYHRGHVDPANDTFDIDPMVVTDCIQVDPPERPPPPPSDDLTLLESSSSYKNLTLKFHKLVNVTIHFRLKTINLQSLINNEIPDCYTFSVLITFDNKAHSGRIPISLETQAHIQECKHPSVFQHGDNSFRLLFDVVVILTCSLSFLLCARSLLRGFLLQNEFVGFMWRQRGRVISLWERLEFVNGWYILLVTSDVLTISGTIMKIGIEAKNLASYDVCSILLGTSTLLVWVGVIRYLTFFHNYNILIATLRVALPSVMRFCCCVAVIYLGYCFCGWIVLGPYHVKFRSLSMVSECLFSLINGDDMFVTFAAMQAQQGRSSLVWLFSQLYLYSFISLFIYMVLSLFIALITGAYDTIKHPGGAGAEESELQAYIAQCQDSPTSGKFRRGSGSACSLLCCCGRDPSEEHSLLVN
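Calcium fluorescence in TRPML1-DL cells induced overnight with Tet: a 110 s read after compound pin addition, then a 110 s antagonist read after challenge with 54-4 at 4 uM final (EC80).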
D2 agonist: activates the human D2 dopamine receptor; 360,000 compounds, 0.084% hits; activation, % (test concentration not listed); P14416; DiscoveRx PathHunter D2 beta-arrestin, luminescence, 90 min; 100% = 57 uM dopamine signal; in the data active = activation above about 40%; inconclusive = about 15% to 40%; inactive = below about 15%; note: compound concentration not given in the record; the text of the record calls up to 30% inactive
Target sequence (P14416 whole entry, looked up): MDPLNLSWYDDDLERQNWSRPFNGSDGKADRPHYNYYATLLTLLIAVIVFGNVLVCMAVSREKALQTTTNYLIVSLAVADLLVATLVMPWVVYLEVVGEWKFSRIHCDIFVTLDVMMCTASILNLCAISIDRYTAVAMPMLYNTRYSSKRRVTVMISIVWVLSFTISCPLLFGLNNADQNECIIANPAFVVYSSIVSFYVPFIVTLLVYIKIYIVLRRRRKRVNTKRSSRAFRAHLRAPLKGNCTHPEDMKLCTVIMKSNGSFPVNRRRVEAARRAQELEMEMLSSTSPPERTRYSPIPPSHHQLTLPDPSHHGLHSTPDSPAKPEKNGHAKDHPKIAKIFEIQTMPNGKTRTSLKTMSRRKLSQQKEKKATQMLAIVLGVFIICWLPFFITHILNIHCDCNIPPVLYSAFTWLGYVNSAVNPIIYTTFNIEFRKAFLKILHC
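Agonist mode: compounds alone added to overnight-plated D2 PathHunter cells for 90 min at 37 C, with 57 uM final dopamine (EC100) defining full response. Beta-arrestin recruitment detected by chemiluminescent reagent, read after 1 h at ambient temperature.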
TRPML1 agonist: activates the human TRPML1 channel; activation, % (concentration not given with the values); Q9GZU1; AID 624414; 410,000 compounds, 0.12% hits; TRPML1-expressing cells, Ca2+ dye fluorescence, FDSS; host cell line not named in the record; reference of the full effect not given here; in the data active = activation above about 50%; inconclusive = about 30% to 50%; inactive = below about 30%; note: 0% is about no effect; the text of the record puts the active cut at 80%
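Calcium fluorescence on an FDSS kinetic reader gave the read-out. Tet-induced TRPML1-DL cells were plated overnight, dye-loaded (Ca8 with quencher, 45-90 min, room temperature, dark), then read 110 s after compound addition, and again 110 s after 4uM final 54-4 (EC80).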
Active calls of the source: *; ? = inconclusive; . = no result given; & = joins results of further samples; [ ] = another dose, or the depositor's remark.

SMILES	CtBP-E1A inh	Six1-Eya2 inh	PINK1 expr mod	TRPML1 inh	D2 agonist	TRPML1 agonist
COc1cc(C(N)=O)cc(Cl)c1OCc1ccccc1	3	-2	2.6%	10	-2.2	1.2
O=C(NC(=S)Nc1ccc(CN2CCOCC2)cc1)c1ccc(-c2cccc(Cl)c2)o1	.	0	1.3%	24	-1.2	0.9
CC(C)COc1cccc(C(=O)NC(=S)Nc2cccc(NC(=O)c3ccccc3Cl)c2)c1	-5	0	5.3%	-8	2.3	1.2
O=C(c1cccc(S(=O)(=O)N2CCc3ccccc32)c1)N1CCN(c2ccccn2)CC1	-8	-4	7.2%	5	-3.3	0.9
CCOc1ccccc1N1CCN(C(=O)CCCN2C(=O)c3cccc4cccc(c34)C2=O)CC1	-21	-20	-2.3%	-14	-3.2	3.1
COc1ccccc1Oc1coc2c(CN3CCN(C)CC3)c(O)ccc2c1=O	8	3	10%[38.3 µM]	2	-3.5	0.0
O=C(NCC(c1ccco1)N1CCCCC1)c1ccc(OCc2ccccc2)cc1 (stereo not drawn)	4	4	2.1%	-2	-3.6	-1.0
CCCNC(=O)NS(=O)(=O)c1cnccc1Sc1ccc(Cl)c(Cl)c1	-2	-3	1.0%	-25	0.2	-0.5
Cc1ccccc1NC(=O)c1ccc2[nH]c(C)c(C)c2c1	.	.	1.2%	17	.	0.2
Cc1cc(C)cc(NS(=O)(=O)c2ccc3[nH]c(=O)[nH]c3c2)c1	-1	-3	-1.1%	-9	0.2	-0.7
Cc1ccc(S(=O)(=O)N2CCN(C(=O)c3cc(S(=O)(=O)N4CCOCC4)ccc3Cl)CC2)c(C)c1	.	-2	0.2%	10	11	-0.6
COc1cc(OC)cc(C2=Cc3ccccc3C(CC(=O)c3ccco3)N2c2ccc(-c3ccc(C(N)=O)cc3)cc2)c1 (stereo not drawn)	-23	4	2.8%	.	.	-0.2
Cc1nc(-c2ccccc2)sc1C1(C)CC(c2ccc(OC(F)(F)F)cc2)=NO1 (stereo not drawn)	-8	12	12%	30	-3.6	2.0
COc1ccccc1C(=O)N/C(=C/c1ccco1)C(=O)Nc1ccc(C(=O)O)cc1	-16	-3	0.5%	6	-2.4	0.7
O=C(OC1CO[C@H]2O[C@@H]1[C@H](OC(=O)c1ccccc1)[C@H]2OC(=O)c1ccccc1)c1ccccc1 (stereo partly drawn)	-1	1	1.1%	1	-2.9	-0.2
COc1ccccc1Nc1cc2cc(Br)ccc2c(=O)[nH]1	3	1	16%	-4	1.3	-0.5
CC(C)Nc1nc(Oc2cccc(Cl)c2Cl)cc(C(F)(F)F)n1	25	16	11%	4	-3.2	0.4
C/C(=N\Nc1ccc2nncn2n1)c1ccc(Cl)s1	.	-2	-0.4%	-3	-1.5	-1.4
C=CC[C@H]1C(C(=O)OCC)=CC[C@@H](c2ccccc2)N1S(=O)(=O)c1ccc(C)cc1	5	0	2.3%	76	-3.4	-0.1
Cc1ccc(C2CN=NC23CCc2ccccc2C3=O)cc1 (stereo not drawn)	-5	3	2.6%	-11	1.1	-0.9
CN(C)Cc1c(C#N)c2ccccc2n1C	-6	-2	-2.8%[38.3 µM]	32	-1.8	0.5
CCC(C)NC(=O)Cn1cc2c(n1)CCC(C)C2 (stereo not drawn)	2	-3	1.2%	3	-2.9	0.7
O=C(NC(c1ccc(Cl)cc1)c1cnccn1)C1CCN(CCOc2ccc(F)cc2)CC1 (stereo not drawn)	2	-2	-0.9%	13	-5.4	1.1
CCCn1c(=O)c(C(=O)NNC(=O)c2cccc([N+](=O)[O-])c2)c(O)c2ccccc21	-3	-9	1.1%	19	-1.7	1.8
O=C(CCl)N1CCN(CC(=O)N2CCCC2)CC1	5	4	7.2%	12	-0.7	2.6
COc1cccc(C(c2c(N)[nH]c(=S)[nH]c2=O)c2c(N)[nH]c(=S)[nH]c2=O)c1	6	-4	-0.2%	5	1.6	0.8
COc1ccc(/C=C/C(=O)Oc2cccc(/C=N/NC(=O)c3cccc(F)c3)c2)cc1	?	-13	4.0%	-1	4.6	1.6
Nc1cc(N)nc(SCC(=O)NCc2ccco2)n1	6	3	0.3%	-2	-1.9	-0.4
O=C(c1cnn(C(=O)c2cccc(S(=O)(=O)N3CCOCC3)c2)c1)c1cc(Cl)cc(Cl)c1O	-6	-19	0.0%	5	-0.6	0.0
COc1cccc2sc(NNC(=O)C3=COCCO3)nc12	8	7	30%	3	9.9	-0.3
O=C(Cn1ncc2c(=O)oc3ccccc3c21)NCc1ccccc1Cl	.	.	0.3%	8	.	-0.9
Cc1ccc(Cl)cc1Nc1sc(C(=O)c2ccccc2)c(N)c1S(=O)(=O)c1ccccc1	.	.	0.0%	24	.	22
NS(=O)(=O)c1ccc(CCNC(=O)C2Cc3ccccc3CN2C(=O)c2ccco2)cc1 (stereo not drawn)	-11	7	-0.8%	0	-0.2	0.6
COc1cccc(CNS(=O)(=O)c2cc3c4c(c2)CCC(=O)N4CCC3)c1	0	6	3.3%	-3	-0.1	1.7
O=S(=O)(NC1CCCC1)c1ccc(-n2cnnn2)cc1	17	11	-0.2%	-9	-0.4	0.4
CNC(C)C(=O)NC(C(=O)N1CCCC1C(=O)Nc1ccc2[nH]ccc2c1)C(C)C (stereo not drawn)	1	-5	2.0%	4	-4.2	-0.6

Some of the entries so far, with bars between the fields.
compound | CtBP-E1A inh | Six1-Eya2 inh | PINK1 expr mod | TRPML1 inh | D2 agonist | TRPML1 agonist
COc1cccc(C(c2c(N)[nH]c(=S)[nH]c2=O)c2c(N)[nH]c(=S)[nH]c2=O)c1 | 6 | -4 | -0.2% | 5 | 1.6 | 0.8
Cc1ccc(Cl)cc1Nc1sc(C(=O)c2ccccc2)c(N)c1S(=O)(=O)c1ccccc1 | . | . | 0.0% | 24 | . | 22

Entries of single compounds, quoted from the list. Values in the order: CtBP-E1A inh	Six1-Eya2 inh	PINK1 expr mod	TRPML1 inh	D2 agonist	TRPML1 agonist
O=S(=O)(NC1CCCC1)c1ccc(-n2cnnn2)cc1 as listed: 17	11	-0.2%	-9	-0.4	0.4
O=C(CCl)N1CCN(CC(=O)N2CCCC2)CC1 as listed: 5	4	7.2%	12	-0.7	2.6
O=C(Cn1ncc2c(=O)oc3ccccc3c21)NCc1ccccc1Cl as listed: .	.	0.3%	8	.	-0.9
COc1cccc(C(c2c(N)[nH]c(=S)[nH]c2=O)c2c(N)[nH]c(=S)[nH]c2=O)c1 as listed: 6	-4	-0.2%	5	1.6	0.8
COc1cccc(CNS(=O)(=O)c2cc3c4c(c2)CCC(=O)N4CCC3)c1 as listed: 0	6	3.3%	-3	-0.1	1.7

Carrying on:
SMILES	CtBP-E1A inh	Six1-Eya2 inh	PINK1 expr mod	TRPML1 inh	D2 agonist	TRPML1 agonist
CCOC(=O)C1CCN(S(=O)(=O)c2cccc(-c3cn4cc(Cl)ccc4n3)c2)CC1	-11	-21	8.5%	-3	0.2	-1.0
Cn1nccc1C(=O)OCC(=O)Nc1ccccc1Cl	-15	0	4.2%	5	-3.1	-0.2
CC(C)(C)NC(=O)NC(=O)Cn1cc(C(F)(F)F)ccc1=O	7	-3	2.3%	2	-5.0	-0.2
COc1ccc2oc(C(=O)OCC(=O)N3CCCC(C)C3)c(C)c2c1 (stereo not drawn)	-17	0	-4.6%	5	-4.5	1.2
Cn1ncc(Br)c1C(=O)Nc1c(F)c(F)cc(F)c1F	2	-1	2.6%	-1	-2.9	0.8
CCc1ccc(N(C(=O)c2snc(C(N)=O)c2N)C(C(=O)NCC2CCCO2)c2cccs2)cc1 (stereo not drawn)	-1	-8	0.6%	-8	2.8	5.0
CC1CCc2c(sc(N)c2C(=O)OC(C)C)C1 (stereo not drawn)	-11	-19	2.9%	10	-1.1	0.6
Cn1c(=NC(=O)C2CC2)sc2cccc(F)c21	7	4	1.2%	-11	1.6	1.0
CCCCCCCN1C(Nc2ccccc2)=NC[C@@H]1CC(C)C	-22	32	?	32	-4.8	0.1
Cc1cc(C(F)(F)F)nn1CC(=O)Nc1ccc2c(c1)OCO2	0	-4	-1.1%	5	-2.7	2.1
CCOc1ccc(NC(=O)CSc2nccn2Cc2ccco2)cc1	-3	-11	2.2%&1.2%	5&-2	-1.3	0.3&-0.1
CCCc1nnc(NC(=O)CN2C(=O)C3C4C=CC(C4)C3C2=O)s1 (stereo not drawn)	9	5	-2.0%	-8	0.8	0.1
COc1ccc(N2CCN(c3nccs3)CC2)cc1	-6	-15	0.5%	7	0.7	-0.6
O=C(CSc1cn(CCNC(=O)c2cccs2)c2ccccc12)NC1CCCCC1	-15	-2	-1.7%	9	-4.1	0.1
Cc1cc(C)c2nc(/N=C(\N)NC(=O)Nc3ccccc3)nc(C)c2c1	-20	-18	?	-17	-1.0	-0.3
CC(C)C(=O)N1CCN(c2ccc(NC(=O)COc3ccccc3[N+](=O)[O-])cc2)CC1	-18	-12	-1.4%	-2	?	-0.1
O=C(O)c1cnn(-c2ccccc2)c1-c1ccccc1	1	22	1.1%	-4	-1.5	-1.0
COc1ccc(OC)c(NC(=O)c2cccc(S(=O)(=O)N3CCN(C(C)=O)CC3)c2)c1	0	?	0.3%	-3	-2.9	-1.5
CC(OC(=O)c1cccc([N+](=O)[O-])c1)C(=O)N1CCc2ccccc21 (stereo not drawn)	32	-11	0.9%	3	1.5	0.1
Cc1cc(C(=O)COc2ccc(C#N)cc2)c(C)n1C1CC1	-2	-6	0.8%	23	0.2	1.9
COC(=O)c1ccc(-n2c(C)cc(C(=O)CCl)c2C)cc1	0	0	-2.3%	-17	5.0	1.2
CCOc1ccc2c(c1)C(C)=CC(C)(C)N2C(=O)Nc1ccccc1	-15	-19	-1.3%	61	6.2	1.2
c1ccc(-c2cnc(SCCN3CCOCC3)n2CC2CCCO2)cc1 (stereo not drawn)	-3	7	-0.7%	28	1.3	-0.1
Cc1ccccc1N1CCN(S(=O)(=O)C[C@]23CCC(CC2NC(=O)[C@@H](N)CCS(C)(=O)=O)C3(C)C)CC1 (stereo partly drawn)	1	2	0.8%	-12	-2.6	-0.3
COc1ccc(C2=[N+]([O-])C(C)(C)N(O)C2(C)C)cc1	5	2	-0.9%	-6	-1.2	-0.4
CC(C)(C)C(=O)Nc1ccccc1N1CCN(C(=O)c2ccc(Cl)cc2)CC1	-7	-15	-1.6%	-1	-1.5	0.2
Cc1ccc(NC(=O)CN2C(=O)NC(C)(c3ccc4c(c3)OCO4)C2=O)cc1 (stereo not drawn)	6	-8	5.3%	9	-0.2	1.1
O=C1NC(c2ccc(Cl)cc2Cl)Oc2ccccc21 (stereo not drawn)	0	1	3.9%	6	-0.2	0.2
CC(C)=CCc1c2c(c(O)c3c(=O)c4c(oc13)-c1cc(O)c(O)cc1OC4C=C(C)C)C=CC(C)(C)O2 (stereo not drawn)	-27	0	?	.	-1.6	.
O=C(NCCN1CCOCC1)c1cc2sccc2n1Cc1ccc(F)cc1	-11	-7	-0.3%[38.3 µM]	-9	-2.1	0.5
O=C(NNC(=O)c1ccc(Cl)cc1Cl)c1cnccn1	.	1	-0.4%	-3	11	0.4
COC(=O)COc1ccc(C(=O)OC)cc1	3	7	0.0%	2	-2.5	0.4

An unsorted share of the library; about 1% have a hit in one of these screens.
